# Assay outcomes deposited in PubChem BioAssay by several laboratories.
# WNV protease inh: inhibitors of WNV NS2B-NS3 protease, primary screen, biochemical, fluorogenic substrate; fluorogenic substrate Ex360/Em465; active compounds read low; z-score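 (tested at a level between 10 and 100 µM)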; actives 0.18% (n = 65,000); AID 577, 2007;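 active means z-score at -3 or under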;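 further: score is relative to mean and spread of the compound wells of a plate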
# Target sequence (P06935 1371-1501 limits assumed): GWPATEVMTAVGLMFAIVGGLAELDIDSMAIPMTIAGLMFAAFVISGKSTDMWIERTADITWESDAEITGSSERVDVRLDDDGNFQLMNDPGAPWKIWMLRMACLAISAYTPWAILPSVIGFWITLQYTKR
# Target sequence (P06935 1502-1679 limits assumed): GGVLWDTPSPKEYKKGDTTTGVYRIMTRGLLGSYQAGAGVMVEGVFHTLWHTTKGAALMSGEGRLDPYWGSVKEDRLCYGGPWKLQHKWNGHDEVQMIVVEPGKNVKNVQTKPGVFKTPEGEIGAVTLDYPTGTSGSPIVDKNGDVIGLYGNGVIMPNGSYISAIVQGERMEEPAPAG
# Hsc70: Hsc70 inhibitors, probe displacement, primary screen, biochemical, fluorescence polarization (AID 568); Heat shock cognate 71 kDa protein (Homo sapiens); Hsc70 fluorescence polarization, probe displacement; higher % means a stronger effect; strong numbers were not always called active; one-dose displacement, % at 20 µM; IC50 in µM for titrated hits; 83,000 tested, under 10 active;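 active means displacement above 50% without optical interference and an IC50 on retest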;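 further: ATPase domain with a fluorescein-tagged ATP probe; 0% = vehicle and 100% = excess ADP; read after one hour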
# MT1-MMP reporter: inhibitors of MT1-MMP promoter transcription, cell-based, luciferase reporter, luminescence (AID 618); calls from a first round at 10 µM; hits with a dose series show EC50 in µM; actives 0.62% (n = 87,000); MT1-MMP promoter luciferase reporter cells, luminescence;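 active means over half of the reporter light lost at 10 µM or EC50 under 50 µM; inactive means the rest and hits that failed the dose series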;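 further: actives suppress MT1-MMP promoter-driven transcription so potencies describe inhibitors; HT1080 fibrosarcoma cells; overnight exposure; toxic or luciferase-blocking compounds were not removed from the actives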
# The depositor's hits bear a star; i = inactive; x = no result given. The order is random; any-hit rate near 0.8%.
SMILES,WNV protease inh,Hsc70,MT1-MMP reporter
COCCn1nnnc1C(c1ccc(OC)c(OC)c1)N1CCN(c2nc3ccccc3s2)CC1 (stereo not given),-1.13,4.1%,i
Cc1nn(-c2ccc(F)cc2)c2nc(N)c(C#N)c(-c3cccs3)c12,-0.72,-7.8%,i
COC(=O)c1ccc(-n2nnnc2SCC(=O)Nc2ccccc2OC)cc1,-0.71,1.3%,i
Cc1cc(Nc2ccccc2)nn1C(=O)c1ccc(Br)cc1,x,4.5%,i
Cc1cc(C)c(C(=O)CSc2n[nH]c(=O)n2C2CC2)cc1C,0.99,6.6%,i
O=C1c2ccccc2C(O)(Cc2ccccc2)N1c1ccc2c(c1)OCO2 (stereo not given),-1.37,4.3%,i
CCOC(=O)C1CCN(C(=O)/C=C/c2ccccc2OC)CC1,x,3.2%,i
CCN1CCCC1CN=Cc1c(O)n(-c2ccccc2)c(=O)c2ccccc12 (stereo not given),-0.66,4.1%,i
CC(C)C(=O)Nc1c(-c2cccs2)c(=O)c2ccccc2n1C,x,-0.4%,i
Cc1nonc1NC(=O)CSc1nnc(-c2ccoc2C)n1-c1cccc(Cl)c1,x,-2.7%,i
Cc1ccc(/C=N/NC(=O)c2csc(C)c2)o1,x,2.4%,i
Cc1cc(C)n(-c2nc3ccccc3n3nnnc23)n1,0.09,6.9%,i
CCOC(=O)N1CCN(C(=O)CSc2nnc(Cn3c(=O)sc4ccccc43)n2C)CC1,-0.68,3.8%,i
Cn1c(=O)c2[nH]c(Nc3ccccc3)nc2n(C)c1=O,1.75,-0.6%,i
C=CCSc1nc(N)c(C#N)c(-c2ccccc2)c1C#N,-0.37,0.6%,i
Cc1ccc(NC(=O)CN(c2ccc3c(c2)OCO3)S(=O)(=O)c2c(C)n[nH]c2C)cc1,-0.00329,2.1%,i
COc1ccc(-c2nnn(Cc3nc(N)nc(N4CCCCC4)n3)n2)cc1,-0.55,-0.8%,i
O=C(c1ccco1)N(CCCN1CCOCC1)c1nc(-c2ccc(Cl)cc2)cs1,-3.11*,-6.2%,i
O=C(Cc1ccccc1)Nc1nc2ccccc2s1,x,-2.2%,i
NC(=O)CN1N=C(c2cc(Cl)sc2Cl)CSC1=O,x,1.3%,i
Cc1cccc(-n2nc3c(c2NC(=O)c2ccc(Br)o2)CSC3)c1C,-1.56,-1.3%,i
CCS(=O)(=O)NCc1ccc2[nH]c3c(c2c1)CCCC3,2.02,18.3%,i
COc1cc(N)ccc1Cc1ccc(N)cc1OC,-0.82,-11.5%,i
CCC(CC)c1nnc(NC(=O)C2COc3ccccc3O2)s1 (stereo not given),x,2.6%,i
COc1ccccc1S(=O)Cc1ccc(C(=O)NCCc2ccc(Cl)cc2)o1 (stereo not given),0.88,-2.3%,i
CCC1Oc2ccc(Cl)cc2N(CC(=O)O)C1=O (stereo not given),0.61,-3.6%,i
Cc1ccc(NC(=O)c2ccccc2F)nc1,-0.65,7.1%,i
Cc1ccc(S(=O)(=O)N2CCN(S(C)(=O)=O)C2c2ccccc2)cc1 (stereo not given),0.06,-1.6%,i
Cn1nnc2cc(C(=O)NCc3ccco3)ccc21,-0.5,5.0%,i
COc1ccc(-c2nc(C#N)c(N3CCC(C(N)=O)CC3)o2)cc1,x,4.5%,i
COc1ccc(-c2ncc3ccccn23)cc1,0.52,-2.4%,i
CN(C(=S)Nc1ccccc1F)C1(c2ccccc2Cl)CCCCC1=O (stereo not given),x,0.5%,i
O=C(CCCNS(=O)(=O)c1cccc2nsnc12)N1CCCCC1,0.31,-3.3%,i
CCN(C(=O)CSc1nnc(Cn2nnc3ccccc32)o1)c1nc(-c2ccccc2)cs1,0.07,10.0%,i
COC(=O)c1ccccc1NC(=O)c1ccc(NS(C)(=O)=O)cc1,-0.72,-3.8%,i
CC(C)CC[n+]1ccn(-c2nc3ccccc3nc2[N-]S(=O)(=O)c2ccccc2)c1,x,3.6%,i
COc1ccc(C2=Nn3c(nnc3-c3ccccc3)SC2)cc1OC,-0.2,-3.1%,i
O=C(O)CN1C(=O)CC(Cc2ccccc2)C1=O (stereo not given),-1.21,3.8%,i
O=C(Cc1cccs1)Nc1nnc(Cc2ccccc2)s1,x,-6.3%,i
CCOC(=O)N1CCC(N2C(=O)c3ccccc3C2Nc2cc(OC)c(OC)c(OC)c2)CC1 (stereo not given),0.16,-1.0%,i
O=C(CSc1nnc(-c2ccccc2)o1)OCc1ccccc1,-1.15,0.5%,i
NC(=O)c1c(NC(=O)c2cccs2)sc2c1CCCCCC2,-0.42,-5.7%,i
CCC(CO)Nc1ncnc2c1cnn2-c1ccc(OC)cc1 (stereo not given),0.48,2.8%,i
CCS(=O)(=O)N1CCC(NC(=O)C2CCCCC2)CC1,1.68,0.8%,i
CCOC(=O)c1ccccc1OCc1cc(/C=N/n2cncn2)ccc1OC,-0.21,2.5%,i
CCN1C(=O)c2ccccc2S(=O)c2ccc(C(=O)N3CCCCCC3)cc21 (stereo not given),-1.13,-1.9%,i
CCCCNC(=O)OC(C)CNC(=O)Oc1cccc(C)c1 (stereo not given),0.05,-3.2%,i
O=C(c1cccc(F)c1)N1CCc2ccccc21,-0.8,3.2%,i
COc1cccc(-c2cc(C(=O)Nc3cnn(Cc4ccccc4C)c3)no2)c1,-0.09,-4.7%,i
COc1ccc(NC(=O)CSc2nccn2-c2ccccc2)c(OC)c1,-0.43,-2.2%,i
O=C(O)C1(c2cccc(Cl)c2)CCC1,-0.15,4.4%,i
CCOCCc1nnc(NC(=O)C(CC)c2ccccc2)s1 (stereo not given),x,-2.4%,i
CCCn1c2ccccc2c2cc(C(=O)O)ccc21,0.15,-1.2%,i
CC1CC(C)CN(S(=O)(=O)c2ccc3c(c2)oc(=O)n3CC(=O)N2CCOCC2)C1 (stereo not given),-0.32,0.5%,i
CC(C)Oc1ccc(/C(O)=C2/C(=O)C(=O)N(CCN(C)C)C2c2ccco2)cc1 (stereo not given),-0.09,-4.1%,i
Cc1noc(NS(=O)(=O)c2ccc(NC(=O)CCC3CCCCC3)cc2)c1C,0.84,2.8%,i
CC1CCCC(C)N1NC(=O)c1ccc(Cl)c(S(N)(=O)=O)c1 (stereo not given),x,-4.1%,i
CCN1CCN(CCCNc2ncnc3nc[nH]c23)CC1,-0.59,5.4%,i
NC(=O)c1ccccc1OCC(=O)NC12CC3CC(CC(C3)C1)C2,x,4.5%,i
Cc1ccc(NC(=O)CN(c2ccc(C)cc2)S(=O)(=O)c2cccc3nonc23)cc1,x,2.4%,i

# Single records, from the list above. Order of screens: WNV protease inh	Hsc70	MT1-MMP reporter
# `CCCn1c2ccccc2c2cc(C(=O)O)ccc21` reads 0.15	-1.2%	i
# `CC(C)Oc1ccc(/C(O)=C2/C(=O)C(=O)N(CCN(C)C)C2c2ccco2)cc1` (stereo not given) reads -0.09	-4.1%	i
# `NC(=O)c1c(NC(=O)c2cccs2)sc2c1CCCCCC2` reads -0.42	-5.7%	i
# `Cc1noc(NS(=O)(=O)c2ccc(NC(=O)CCC3CCCCC3)cc2)c1C` reads 0.84	2.8%	i
# `NC(=O)c1ccccc1OCC(=O)NC12CC3CC(CC(C3)C1)C2` reads x	4.5%	i

# Following part.
SMILES,WNV protease inh,Hsc70,MT1-MMP reporter
COc1ccccc1-n1c(SCC(=O)NC2CCCCC2)nc2c(c1=O)SCC2,-0.86,-0.8%,i
CCn1c(-c2cccs2)nc2ccccc21,x,-1.3%,i
Cc1cc2c(c(=O)n1CCN(C)C)C(c1ccncc1)C(C#N)=C(N)O2 (stereo not given),-0.17,2.7%,i
CC1(C)Cc2c(sc3c2c(=O)n(Cc2ccccc2)c2nncn32)CO1,0.96,0.7%,i
O=C1CN2C(=Nc3ccc(Cl)cc3C2c2ccccc2)CN1 (stereo not given),0.91,1.8%,i
CCOC(=O)c1cnc2nc(NCc3ccc(OCc4ccccc4)cc3)[nH]n2c1=O,x,-4.2%,i
O=C1CC(Nc2ccc(N3CCOCC3)cc2)C(=O)N1c1cccc(C(F)(F)F)c1 (stereo not given),1.32,1.6%,i
CCn1c(SCC(=O)c2cc(C)n(C)c2C)nnc1-c1ccccc1,x,41.1%,i
Cn1ncc2c1ncn1nc(CCc3ccccc3)nc21,1.66,-0.7%,i
COc1ccc(C2c3sc(=O)[nH]c3SC3C4CCC(C4)C23)cc1 (stereo not given),-0.47,-2.1%,i
CC(=O)c1c(C(C)=O)c(C)n(-c2nc(-c3ccc(C)c(C)c3)c(C)s2)c1C,x,1.5%,i
O=C(CCS(=O)(=O)Cc1ccccc1)NC1CCCCC1,-0.36,-5.8%,i
O=C(C(c1ccccc1)c1ccccc1)N1CCN(CC(O)COc2ccccc2)CC1 (stereo not given),-0.56,-2.6%,i
COc1ccc(C(OC(=O)c2ccco2)C(=O)NCC2CCCO2)cc1 (stereo not given),-0.09,3.8%,i
CCn1c(=O)c2c(nc(SCc3ccccn3)n2C)n(C)c1=O,0.53,-3.6%,i
COc1ccc(CCNc2nnc(C)c(=O)[nH]2)cc1OC,x,-2.8%,i
Cc1ccc(SCC(=O)N2CCc3ccccc32)cc1,x,-0.6%,i
O=C(c1nn(Cc2ccccc2)c(=O)c2ccccc12)N1CCc2ccccc2C1,x,-7.9%,i
C(=N\n1cnnc1)/c1ccccn1,-0.14,-2.5%,i
Cc1ccc(C)c(N2CCN(CCCNC(=O)Cn3cc4c(n3)CCCCC4)CC2)c1,-0.39,-2.3%,i

# Overlap with the part before: 3 compounds; new compounds follow.
SMILES,WNV protease inh,Hsc70,MT1-MMP reporter
O=C(c1nn(Cc2ccccc2)c(=O)c2ccccc12)N1CCc2ccccc2C1,x,-7.9%,i
C(=N\n1cnnc1)/c1ccccn1,-0.14,-2.5%,i
Cc1ccc(C)c(N2CCN(CCCNC(=O)Cn3cc4c(n3)CCCCC4)CC2)c1,-0.39,-2.3%,i
COc1ccc2[nH]c(C)c(C(=O)CN3CCOCC3)c2c1,-0.44,2.7%,i
CCc1c(C)sc(NC(=O)c2cc(-c3cc(OC)ccc3OC)on2)c1C#N,0.53,-2.6%,i
O=C(Cc1cn2ccsc2n1)Nc1nc2c(s1)CCCC2,-0.83,-5.2%,i
CCCC(=O)NCCc1cc2ccc(OC)cc2[nH]c1=O,1.8,-0.1%,i
Cc1ccc(C(=O)c2nocc2C(=O)c2cccs2)cc1,1.59,1.5%,i
COC(=O)c1ccc2c(c1)N(Cc1nc(-c3cccc(C)c3)oc1C)C(=O)C1CCCN21 (stereo not given),0.19,-26.2%,i
COc1ccc(CCNC(=O)COc2ccc(S(=O)(=O)N3CCOCC3)cc2)cc1,0.43,2.1%,i
CCCc1cc(=O)oc2cc(Oc3ncccn3)ccc12,2.78,-0.2%,i
COc1ccc2occ(C(=O)c3coc4ccc(O)c(CN(C)C)c34)c2c1,0.13,1.9%,i
Cc1ccccc1CSc1nsc(N)n1,x,-2.2%,i
CC1(C)NC(=O)N(CC(O)COc2ccc(-c3ccccc3)cc2)C1=O (stereo not given),1.66,1.7%,i
CCOc1ccc(NC(=O)NCCCSC2CCCCC2)cc1,x,2.7%,i
CCOC(=O)c1cnc(-n2nc(C)cc2C)nc1N1CCOCC1,1.13,-2.6%,i
N#Cc1ccccc1Sc1ccccc1C(=O)OCc1nnc(-c2ccccc2)o1,1.82,-20.4%,i
O=C(CNS(=O)(=O)c1cccc(C(F)(F)F)c1)Nc1ccccc1F,-0.08,-0.9%,i
O=C(NCCCn1ccnc1)C(=O)NCc1ccc(Cl)cc1,x,2.3%,i
CCOC(=O)N1CCN(C(=O)C(CC(C)C)NS(=O)(=O)c2ccc3c(c2)oc(=O)n3C)CC1 (stereo not given),x,-2.3%,i
O=C(Nc1ccc(Br)cc1F)c1ccc2c(c1)N(Cc1ccccc1)C(=O)CS2=O (stereo not given),-0.06,-3.7%,i
Cn1c(N2C(=O)CC(Cc3ccccc3)C2=O)nc2ccccc21 (stereo not given),x,-7.1%,i
O=C(CN1C(=O)c2cccc3cccc1c23)NCc1cccnc1,2.93,2.1%,i
CCNC(=O)C1CC(=O)OC12CCCCC2 (stereo not given),x,-2.1%,i
COc1ccccc1NC(=O)C1=C(C)Nc2nc(-c3cccs3)nn2C1c1cccc(O)c1 (stereo not given),-0.64,-4.3%,i
CCOc1ccc(C2C=C(c3ccc(C)cc3)Nc3ncnn32)cc1 (stereo not given),-0.33,27.6%,i
COc1ccc(C2(CNC(=O)C(c3ccccc3)c3ccccc3)CCOCC2)cc1OC,x,3.6%,i
C=CCNc1nc(NC(C)(C)CO)nc(OC)n1,x,-7.6%,i
CC(C)Cn1c(=O)c(C(=O)NCc2ccccn2)c(O)c2ccccc21,-1.1,2.0%,i
COc1cccc(NS(=O)(=O)c2ccc(Br)s2)c1,-0.3,-6.0%,i
COc1ccccc1-c1nnc(SCC(=O)Nc2nc(-c3ccccc3)cs2)n1C,-0.02,2.3%,i
COc1ccccc1C(=O)N1CCN(C(=O)c2ccncc2)CC1,0.95,-4.8%,i

# An excerpt from above in order of molar mass, lowest first.
SMILES,WNV protease inh,Hsc70,MT1-MMP reporter
C=CCNc1nc(NC(C)(C)CO)nc(OC)n1,x,-7.6%,i
COc1cccc(NS(=O)(=O)c2ccc(Br)s2)c1,-0.3,-6.0%,i
CC(C)Cn1c(=O)c(C(=O)NCc2ccccn2)c(O)c2ccccc21,-1.1,2.0%,i
